MLL AF4-AF9 inh – blocks AF4 peptide binding to human AF9. actives 0.47% (n = 350,000). P42568. AlphaScreen, biotin-AF4 peptide binding to FLAG-AF9. inhibition, % at 10 µM;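 active means every replicate reaching a set inhibition limit, whatever the replicate mean, cut at about 25% in these data; inconclusive means mean inhibition reaches that limit but some replicates miss it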;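 further: 0% = plate neutral control median and 100% = total signal loss; the record names both 10 and 1 µM as test concentration; the first replicate is given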
Target sequence (P42568 whole entry, looked up): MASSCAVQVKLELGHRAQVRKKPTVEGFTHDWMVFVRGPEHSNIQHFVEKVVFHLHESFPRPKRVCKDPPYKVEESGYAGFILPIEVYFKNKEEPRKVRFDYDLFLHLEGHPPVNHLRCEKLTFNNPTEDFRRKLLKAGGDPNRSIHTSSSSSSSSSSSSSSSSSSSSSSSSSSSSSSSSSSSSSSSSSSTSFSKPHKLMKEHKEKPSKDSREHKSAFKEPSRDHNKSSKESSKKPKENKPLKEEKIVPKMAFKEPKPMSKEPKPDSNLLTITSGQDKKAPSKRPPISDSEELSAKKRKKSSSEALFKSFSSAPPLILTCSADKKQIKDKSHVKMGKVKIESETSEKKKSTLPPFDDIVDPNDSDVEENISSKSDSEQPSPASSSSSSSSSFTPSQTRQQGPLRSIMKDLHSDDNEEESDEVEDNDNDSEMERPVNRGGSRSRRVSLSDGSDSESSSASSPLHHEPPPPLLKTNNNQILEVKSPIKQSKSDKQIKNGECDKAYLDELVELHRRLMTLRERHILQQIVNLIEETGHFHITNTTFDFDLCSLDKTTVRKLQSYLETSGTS
Ecoli rRNA inh – inhibitors of bacterial rRNA selective over humanized ribosomes; AID 720706; E. coli WT GFP vs humanized-ribosome RFP mutants, fluorescence, 24 h; stronger effect = lower value; DMSO median 0, no signal -100; actives 1.6% (n = 350,000); GFP signal change (wild-type ribosome), % (test concentration not listed);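 active means significant combined selectivity score with lowered wild-type GFP, culture density cut under 30%, mutant RFP and density less affected; inactive means any of these conditions unmet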; further: one replicate is shown; some compounds called inactive have numbers as strong as hits
Ecoli rRNA inh OD600 – second read-out of Ecoli rRNA inh, no call of its own (marks repeat the call); OD600 change, %; measured here: OD600 growth;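 optical density of the mix in the first replicate; 0 = DMSO median and -100 = no signal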
Ecoli rRNA inh RFP – recorded beside Ecoli rRNA inh, whose call it bears; RFP signal change, %; measured here: RFP humanized mutant strains;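 first replicate; 0 = DMSO median and -100 = no signal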
An asterisk follows results filed as active; ? = inconclusive; & = joins results of further samples. The list is partial, so the mix of outcomes need not match the whole.

SMILES	MLL AF4-AF9 inh	Ecoli rRNA inh	Ecoli rRNA inh OD600	Ecoli rRNA inh RFP
Cn1cc(Cc2ccc(C(=O)NCc3ccccc3)cn2)c2ccccc21	3.0	-7	-10	0.8
COc1ccc(NC(=O)Nc2ccc3c(c2)C(=O)N([C@@H](C)CO)C[C@@H](C)[C@@H](CN(C)C)O3)cc1	-0.1	7	2	1.5
COc1ccc(NC(=O)Nc2ccc3c(c2)[C@H]2C[C@@H](CC(=O)N[C@@H](C)c4ccccc4)O[C@@H](CO)[C@H]2O3)cc1	-1.6	-2	4	-0.4
O=C(CN1CCOCC1)N1C[C@@H]2N[C@H](C1)C2c1ccc(-c2ccccc2)cc1 (some centres not stated)	-0.3&-2.1	3&2	16&15	-2.6&-2.7
Cc1noc(C)c1NC(=O)N(C)C[C@H]1OCCCC[C@@H](C)Oc2ccc(NC(=O)c3ccncc3)cc2C(=O)N([C@@H](C)CO)C[C@H]1C	-1.3	1	10	-0.1
CCC(=O)N(C)C[C@@H]1Oc2cc(C#CC3CC3)ccc2S(=O)(=O)N([C@@H](C)CO)C[C@H]1C	-4.3	-12	-31	-2.9
Cc1noc(C)c1NC(=O)Nc1cccc2c1O[C@H](CN(C)S(=O)(=O)c1cn(C)cn1)[C@@H](C)CN([C@@H](C)CO)C2=O	-17	-4	-3	-0.5
CC(=O)N1[C@@H](CO)[C@H](c2ccccc2)[C@@H]1CN(C)S(=O)(=O)c1ccccc1	-2.6	-6	-6	1.6
Cc1noc(C)c1NC(=O)Nc1ccc2c(c1)C(=O)N([C@@H](C)CO)C[C@H](C)[C@@H](CN(C)Cc1ccc(Cl)c(Cl)c1)OCCCC[C@@H](C)O2	6.8	-2	-12	1.1
CN1[C@@H]2c3ccc(/C=C/c4ccccc4)c(=O)n3C[C@H]1[C@H](CO)[C@H]2C(=O)NC1CCCC1	-6.7	-1	14	-0.9
C[C@H](CO)N1C[C@H](C)[C@H](CN(C)S(=O)(=O)c2cccs2)Oc2ccc(NC(=O)CCC(F)(F)F)cc2CC1=O	-1.0	-3	-2	0.9
N#CCCN1CCC(N)=NC1=NC#N	0.6	6	16	2.7
C[C@@H]1CN([C@@H](C)CO)S(=O)(=O)c2ccc(-c3cncnc3)cc2O[C@@H]1CN(C)C(=O)C1CCC1	-0.7	3	9	1.1
CN(C)Cc1cn(CC[C@@H]2CC[C@@H](NS(=O)(=O)c3ccc(-c4ccccc4)cc3)[C@H](CO)O2)nn1	3.9	-2	-4	7.8
Cc1ccc(S(=O)(=O)N(C)C[C@@H]2OCCCC[C@H](C)Oc3ccc(NS(=O)(=O)c4ccc(F)cc4)cc3C(=O)N([C@@H](C)CO)C[C@@H]2C)cc1	0.5	0	-5	-0.6
O=C(c1ccccc1)N1CC2(C1)[C@@H](c1ccccc1)[C@@H](CO)N2C(=O)CC1CC1	-3.2	1	-4	-0.6
C/C=C/c1ccc([C@H]2[C@@H](CNC(=O)CC)N(C(=O)COC)[C@H]2CO)cc1	-1.6	3	-2	-2.2
CO[C@@H]1CN(C)C(=O)c2cc(NS(=O)(=O)c3ccc(C)cc3)ccc2OC[C@H](C)N(C(=O)NC(C)C)C[C@@H]1C	-0.3	-2	0	0.5
CCCNC(=O)C[C@H]1C[C@H]2c3cc(NS(C)(=O)=O)ccc3O[C@H]2[C@H](CO)O1	0.1	1	5	-1.0
COc1ccc(NC(=O)Nc2ccc3c(c2)C(=O)N([C@H](C)CO)C[C@H](C)[C@H](CN(C)C(=O)Nc2ccc(OC)cc2)O3)cc1	1.8	-3	-7	-1.0
Cc1noc(C)c1NC(=O)N(C)C[C@H]1OCCCC[C@@H](C)Oc2ccc(NC(=O)Cc3ccccc3)cc2C(=O)N([C@H](C)CO)C[C@@H]1C	-4.7	3	6	-2.0
CCCNC(=O)N1C[C@@H](O)COC[C@H]2O[C@@H](CC(=O)N3CCC(Cc4ccccc4)CC3)CC[C@@H]21	-1.6	2	3	2.3
Cc1cccc(S(=O)(=O)N2C[C@@H]3N[C@H](C2)C3c2ccc(-c3cccnc3)cc2)c1 (some centres not stated)	1.4&7.6	0&0	0&-3	-1.3&1.1
CC(C)NC(=O)NCC[C@H]1CC[C@H](NS(=O)(=O)c2ccc(-c3ccccc3)cc2)[C@@H](CO)O1	7.7	-1	7	2.0
CC(C)NC(=O)N(C)C[C@@H]1Oc2cc(-c3cccnc3)ccc2S(=O)(=O)N([C@H](C)CO)C[C@@H]1C	-0.6	8	12	-3.9
COc1ccc(CN(C)C[C@H]2Oc3c(NS(=O)(=O)c4cccs4)cccc3C(=O)N([C@H](C)CO)C[C@@H]2C)cc1	2.9	3	4	0.5
O=C(N[C@H]1CC[C@@H](CCNS(=O)(=O)c2ccccc2)O[C@@H]1CO)c1cnccn1	-0.3	6	5	-1.8
COc1cccc(S(=O)(=O)N(C)C[C@@H]2Oc3ncc(-c4cccc(C(=O)N(C)C)c4)cc3C(=O)N([C@H](C)CO)C[C@@H]2C)c1	-5.0	1	8	-3.2
O=C(Nc1ccc(F)cc1)N1C[C@H]2[C@@H](c3ccccc31)[C@@H](CO)N2Cc1ccccc1Cl	0.9	-16	-51	0.5
COc1ccc2c3c(n(C)c2c1)[C@@H](CO)N(Cc1ccc(F)cc1)CC31CCN(CC2CC2)CC1	?	1	-9	4.1
CN(C)CC(=O)N1[C@H](CO)[C@H](c2ccc(-c3cccc(C(=O)N(C)C)c3)cc2)[C@@H]1C#N	1.0	7	14	0.6
COC(=O)c1cc2c(c3c4cc(F)ccc4n(S(=O)(=O)c4ccccc4)c13)C(=O)N(Cc1ccccc1OC)C2	-3.4	9	14	11
COc1ccc(S(=O)(=O)Nc2ccc3c(c2)C(=O)N([C@@H](C)CO)C[C@@H](C)[C@H](CN(C)C(=O)Nc2ccc(C(F)(F)F)cc2)OCCCC[C@@H](C)O3)cc1	-0.4	3	-2	-2.0
CCCNC(=O)N1C[C@H](O)COC[C@H]2O[C@@H](CC(=O)N[C@H]3CCN(Cc4ccccc4)C3)CC[C@@H]21	-4.5	3	-4	-6.4
CN(C)CC(=O)Nc1ccc2c(c1)[C@H]1C[C@@H](CC(=O)NC3CCCC3)O[C@@H](CO)[C@H]1O2	2.8	0	-4	-1.0
C[C@@H]1CN([C@H](C)CO)S(=O)(=O)c2ccc(C#Cc3cccc(F)c3)cc2O[C@H]1CN(C)C(=O)CN1CCOCC1	5.2	-3	-12	14
CCOc1ccccc1N1CCN(CC(=O)Nc2nccs2)CC1	1.1	11	16	-2.0
C[C@@H]1CCCCO[C@@H](CN(C)C(=O)C2CCCCC2)[C@H](C)CN([C@H](C)CO)C(=O)c2cc(NS(=O)(=O)c3ccc(Cl)cc3)ccc2O1	3.0	-1	-1	0.1
CN(C)c1ccc(-c2cc(NC=O)c3ncc(-c4ccc(F)c(Cl)c4)n3c2)cc1	5.9	-21	15	12
COc1cccc(NC(=O)N(C)C[C@H]2Oc3cc(C#Cc4ccncc4)ccc3S(=O)(=O)N([C@@H](C)CO)C[C@@H]2C)c1	4.7	-2	-5	3.7

Look-ups from the results shown.
For Ecoli rRNA inh, CC(C)NC(=O)NCC[C@H]1CC[C@H](NS(=O)(=O)c2ccc(-c3ccccc3)cc2)[C@@H](CO)O1 has -1
For MLL AF4-AF9 inh, COc1ccc(CN(C)C[C@H]2Oc3c(NS(=O)(=O)c4cccs4)cccc3C(=O)N([C@H](C)CO)C[C@@H]2C)cc1 has 2.9

5 of the entries above in order of their number in MLL AF4-AF9 inh, largest number first:
SMILES	MLL AF4-AF9 inh	Ecoli rRNA inh	Ecoli rRNA inh OD600	Ecoli rRNA inh RFP
COc1ccc(NC(=O)Nc2ccc3c(c2)C(=O)N([C@H](C)CO)C[C@H](C)[C@H](CN(C)C(=O)Nc2ccc(OC)cc2)O3)cc1	1.8	-3	-7	-1.0
COc1ccc(NC(=O)Nc2ccc3c(c2)C(=O)N([C@@H](C)CO)C[C@@H](C)[C@@H](CN(C)C)O3)cc1	-0.1	7	2	1.5
COc1ccc(NC(=O)Nc2ccc3c(c2)[C@H]2C[C@@H](CC(=O)N[C@@H](C)c4ccccc4)O[C@@H](CO)[C@H]2O3)cc1	-1.6	-2	4	-0.4
CC(=O)N1[C@@H](CO)[C@H](c2ccccc2)[C@@H]1CN(C)S(=O)(=O)c1ccccc1	-2.6	-6	-6	1.6
Cc1noc(C)c1NC(=O)N(C)C[C@H]1OCCCC[C@@H](C)Oc2ccc(NC(=O)Cc3ccccc3)cc2C(=O)N([C@H](C)CO)C[C@@H]1C	-4.7	3	6	-2.0

Next part
SMILES	MLL AF4-AF9 inh	Ecoli rRNA inh	Ecoli rRNA inh OD600	Ecoli rRNA inh RFP
O=C(CN1CCOCC1)NCC[C@H]1CC[C@@H](NS(=O)(=O)c2ccc(Cl)cc2)[C@@H](CO)O1	1.6	1	-1	0.3
CCCC(=O)Nc1ccc2c(c1)OC[C@H](C)N(Cc1ccccn1)C[C@@H](C)[C@@H](OC)CN(C)C2=O	0.2	1	3	-1.7
C[C@H](CO)N1C[C@H](C)[C@H](CN(C)C)Oc2cc(C#CC3CC3)ccc2S1(=O)=O	-7.5	4	7	1.6
O=C(C[C@@H]1CC[C@@H]2[C@H](COC[C@H](O)CN2CC2CC2)O1)NCc1ccc(Cl)cc1	0.5	-1	2	-4.7
C[C@H](CO)N1C[C@H](C)[C@@H](CN(C)C(=O)Nc2ccc3c(c2)OCO3)Oc2cc(C#Cc3cccnc3)ccc2S1(=O)=O	-3.8	-22	-33	4.5
CN1c2ccc(-c3ccc(F)cc3)cc2[C@@H]2[C@@H](CCN2S(=O)(=O)c2ccc(F)cc2)[C@@H]1CO	-2.3	-3	1	-0.1
C[C@H]1CCCCO[C@@H](CN(C)C(=O)C2CCCCC2)[C@@H](C)CN([C@@H](C)CO)C(=O)c2cc(NS(=O)(=O)c3ccccc3)ccc2O1	0.3	-6	-12	4.0
COc1ccccc1NC(=O)N1CC[C@H]2[C@@H]1c1cc(C#Cc3ccc(F)cc3)ccc1N(C)[C@H]2CO	-4.5	2	14	-3.7
Cc1ccc(S(=O)(=O)N[C@@H]2CC[C@@H](CCNC(=O)C3CC3)O[C@@H]2CO)cc1	-1.6	-1	-4	-0.6
COc1cccc(S(=O)(=O)Nc2ccc3c(c2)[C@@H]2C[C@H](CC(=O)O)O[C@@H](CO)[C@@H]2O3)c1	-0.9	-4	-16	-1.9
O=C(O)C[C@H]1C[C@@H]2c3cc(NC(=O)c4cccnc4)ccc3O[C@@H]2[C@H](CO)O1	-1.5	0	-4	0.9
CCCC(=O)Nc1ccc2c(c1)C(=O)N(C)C[C@H](OC)[C@@H](C)CN(Cc1ccc(-c3ccccn3)cc1)[C@@H](C)CO2	0.1	1	-8	-0.8
COc1ccc(NC(=O)C2Cc3c(-c4ccc(Cl)cc4)ccnc3O2)cn1 (configuration not stated)	-1.1	-7	-40	6.2
CC(=O)Nc1cc(-c2ccsc2)cn2c(-c3ccc(F)cc3)cnc12	3.6	4	7	2.2
CC(=O)N(C)C[C@H]1Oc2ncc(-c3ccc(F)cc3)cc2C(=O)N([C@H](C)CO)C[C@H]1C	-4.2	8	17	-2.8
C[C@H](O)C#Cc1cnc2c(c1)C(=O)N([C@H](C)CO)C[C@H](C)[C@@H](CN(C)C(=O)CC1CC1)O2	-2.7	4	10	0.6
CCN1CC(=O)N2[C@H](CO)[C@@H](c3ccc(-c4cccnc4)cc3)[C@H]2C1	-5.0	3	4	2.7
CNC[C@H]1Oc2ncc(-c3cccc(C(=O)N(C)C)c3)cc2C(=O)N([C@@H](C)CO)C[C@H]1C	-3.0	7	26	-2.8
COc1cccc(C(=O)C(=O)N2CCN(C(=O)OCc3ccccc3)CC2)c1	0.0	-10	-11	5.5
C[C@@H]1CN([C@@H](C)CO)C(=O)c2cc(NC(=O)CCCN(C)C)ccc2O[C@H]1CN(C)Cc1ccc(Oc2ccccc2)cc1	18	-3	-9	1.1
O=C(C[C@H]1C=C[C@@H](NC(=O)Nc2ccc(C(F)(F)F)cc2)[C@@H](CO)O1)NCc1cc(F)cc(F)c1	0.6	-12	-49	-0.7
C[C@@H]1CN([C@H](C)CO)C(=O)c2cc(NC(=O)Nc3cccc4ccccc34)ccc2O[C@@H](C)CCCCO[C@H]1CN(C)C(=O)C1CCCCC1	-1.6	1	5	-2.7
C[C@H](CO)N1C[C@H](C)[C@@H](CN(C)C(=O)c2ccccc2)Oc2ncc(-c3ccc(C#N)cc3)cc2C1=O	-0.8	-4	-1	1.8
COc1cccc(NC(=O)N(C)C[C@@H]2Oc3cc(C#Cc4ccc(F)cc4)ccc3S(=O)(=O)N([C@@H](C)CO)C[C@@H]2C)c1	-21	-2	13	0.0
C[C@H]1CN([C@@H](C)CO)S(=O)(=O)c2ccc(-c3ccccc3)cc2O[C@@H]1CN(C)Cc1cncnc1	5.1	-11	-27	3.3
CC(C)CC1C(=O)N(Cc2cn(CCC3OCCO3)nn2)CCS(=O)(=O)N1Cc1ccc(-c2ccc(F)cc2)cc1 (configuration not stated)	-1.7	3	7	0.5
Cn1cnc(S(=O)(=O)N[C@H]2C=C[C@@H](CC(=O)Nc3ccc(-c4ccccc4)cc3)O[C@@H]2CO)c1	-1.3	-2	0	1.3
CN(C)C(=O)c1cccc(-c2ccccc2[C@H]2[C@@H](CO)N(C(=O)C3CCC3)[C@H]2C#N)c1	-1.7	4	-19	-4.0
Cc1cc(Br)cn2c(Cc3cccc(F)c3)c(-c3ccc(Cl)cc3)nc12	-5.1	-32*	-24*	5.3*

Assay outcomes from PubChem BioAssay.
